# High-throughput results: PubChem BioAssay, several laboratories
# Beta apoptosis: blocks beta cell apoptosis; INS-1E cytokine-induced death, ATP luminescence, 48 h; percent of positive-control rescue, neutral wells zero; protection from apoptosis, % (no concentration beside the values); actives 0.8% (n = 300,000); AID 435005;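 active = all replicates at 75% or more, or half of them and the mean; inconclusive = half reach 75% but not the mean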;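 also: 0% = cytokine-treated negative control wells and 100% = positive control rescue; higher means more ATP so stronger rescue from cytokine killing; wells of about 40 µL received 100 nL stock; the first replicate is given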
# T cruzi inh: blocks replication of Trypanosoma cruzi | inhibition, % (no concentration beside the values) | AID 1885 | actives 1.4% (n = 300,000) | T. cruzi beta-gal in NIH3T3, luminescence, 90 h;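 active = mean inhibition across valid replicates above about 55%, limit read from the data; inconclusive = mean below that limit but half or more replicates reach it; inactive = mean below it, under half of replicates reach it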;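 also: signal also drops with host cell toxicity which is not excluded here; 0% = plate median of DMSO wells and 100% = zero luminescence signal; higher percent means less beta-gal luminescence so fewer parasites; stock transfer was 50 nL into about 50 µL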
# Vif TR-FRET: inhibitors of Vif binding to APOBEC3G peptide, primary screen, biochemical, TR-FRET, GST-Vif 1-94, biotin-A3G peptide, dose response retest (AID 1117319); TR-FRET GST-Vif / biotin-A3G peptide binding; higher % means a stronger effect; test concentration not given here; strong numbers were not always called active; inhibition, %; hits with a dose series show IC50 in µM; actives 0.57% (n = 260,000);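 active = above the screen mean plus three standard deviations and confirmed in dose response; inconclusive = results disagree or hit not tested in dose response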;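 also: Vif residues 1-94 fused to GST binding biotinylated APOBEC3G peptide 110-148; 0% = full assay without inhibitor and 100% = GST in place of GST-Vif; retest series ran down from 100 µM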
# A1 inh: inhibitors of the anti-apoptotic protein A1, read as caspase activation | caspase activation, % (no concentration beside the values) | actives 0.066% (n = 330,000) | AID 2462 | MEF A1-2A-BIM cells, Caspase-Glo 3/7 luminescence, 3 h; percent of clofoctol response, vehicle zero;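 active = over half of replicate activation scores above 10%, or exactly half above 10 with the replicate mean above 10; inconclusive = replicate mean below 10 yet half the replicates above 10; inactive = over half of replicates below 10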;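 also: wells of about 30 µL received 50 nL stock; many hits fall short of the cut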
# Calb FLC: affects C. albicans growth with fluconazole; C. albicans CaCi-2 (fluconazole-resistant clinical isolate) + fluconazole, Alamar Blue growth, 48 h; growth inhibition, % (no concentration beside the values); actives 0.57% (n = 300,000); AID 1979;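 active = most replicates above 75%; inconclusive = exactly half above 75%; inactive = most below 75%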;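 also: all wells also contain fluconazole at 8 µg/ml as a sub-toxic cotreatment; 0% = median of DMSO wells and 100% = median of geldanamycin control wells; wells of about 8 µL received 7.5 nL stock; the first replicate is given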
# AF4-AF9 inh: blocks AF4 peptide binding to human AF9; P42568; AlphaScreen, biotin-AF4 peptide binding to FLAG-AF9; inhibition, % at 10 µM; actives 0.47% (n = 350,000);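 active = every replicate reaching a set inhibition limit, whatever the replicate mean, cut at about 25% in these data; inconclusive = mean inhibition reaches that limit but some replicates miss it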;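 also: 0% = plate neutral control median and 100% = total signal loss; the record names both 10 and 1 µM as test concentration; the first replicate is given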
# Target sequence (P42568 whole entry, looked up): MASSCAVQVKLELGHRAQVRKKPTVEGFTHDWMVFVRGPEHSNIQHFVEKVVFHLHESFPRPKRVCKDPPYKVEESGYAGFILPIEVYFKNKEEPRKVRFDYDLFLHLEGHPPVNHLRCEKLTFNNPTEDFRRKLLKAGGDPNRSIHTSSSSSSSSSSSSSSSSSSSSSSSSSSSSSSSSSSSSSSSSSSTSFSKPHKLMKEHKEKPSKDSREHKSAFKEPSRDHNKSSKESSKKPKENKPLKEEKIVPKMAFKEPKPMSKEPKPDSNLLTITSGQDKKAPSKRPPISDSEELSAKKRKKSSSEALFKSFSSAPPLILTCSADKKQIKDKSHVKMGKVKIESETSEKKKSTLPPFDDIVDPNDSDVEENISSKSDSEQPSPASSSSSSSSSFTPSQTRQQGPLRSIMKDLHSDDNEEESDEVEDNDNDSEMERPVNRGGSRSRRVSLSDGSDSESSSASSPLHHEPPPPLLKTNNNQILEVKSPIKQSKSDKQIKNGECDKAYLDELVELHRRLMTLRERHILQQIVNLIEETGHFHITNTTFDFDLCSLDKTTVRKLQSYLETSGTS
# RanGTP-Impb inh: inhibitors of RanGTP-importin-beta interaction, primary screen, biochemical, FRET, CFP-Ran, YFP-importin-beta, homogeneous; cell-free CFP-Ran/YFP-importin-beta FRET ratio; inhibition, % (test concentration not listed); actives 1.1% (n = 300,000);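 active = most replicates above 15%; inconclusive = exactly half above 15%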;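 also: 0% = DMSO wells and 100% = Ran loaded with GDP instead of GTP; wells of about 40 µL received 100 nL stock; the first replicate is given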
# LANA-H2B inh: blocks KSHV LANA binding to histone H2A/H2B; Q9QR71; cell-free LANA-H2A/H2B peptide, fluorescence polarization; inhibition, % (concentration not given with the values); actives 0.6% (n = 320,000); AID 2629; in the data active = inhibition mostly above about 10%, no sharp cut-off; inactive = mostly below about 6.7%;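 also: stock transfer was 7.5 nL into about 10 µL; 0% = median of vehicle wells and 100% = median of positive control wells; one replicate is shown; the record names a cut of 25% in any replicate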
# Starred values were filed as active, the others as inactive; i = inactive; ? = inconclusive; / = no result given; & = joins results of further samples. Random draw from the library, and some 4.3% of all compounds hit somewhere here.
SMILES,Beta apoptosis,T cruzi inh,Vif TR-FRET,A1 inh,Calb FLC,AF4-AF9 inh,RanGTP-Impb inh,LANA-H2B inh
N#CCc1c(C#N)c(N)nc(N2CCN(S(=O)(=O)c3ccccc3F)CC2)c1C#N,3,28,/,0.6,-2,0.9,0.0,-0.6
CCC(=O)Nc1cccc(NC(=O)c2ccccc2Cl)c1,/,-12,/,0.2,39,1.0,0.9,-0.7
Cc1cccc(NC2=C(NC(=O)c3ccccc3)C(=O)c3ccccc3C2=O)c1,78*,-4,?,0.4,-20,/,-3.2,-0.7
CC(C)C(NC(=O)OCc1ccccc1)C(=O)NCc1ccc(C(=O)O)cc1 (stereo not given),-2,-8,-4%,2.0,-29,/,-1.4,0.4
CCOC(=O)COn1c(=O)c(-c2cc3ccccc3o2)[n+]([O-])c2ccccc21,-1,18,?,-1.1,9,/,0.9,0.8
O=C1C2CCCN2C(c2ccc(F)c(F)c2)N1c1cccc(Cl)c1 (stereo not given),2,0,-2%,-0.5,2,1.3,2.5,1.9
CCN=C1S/C(=C\c2ccc(OC)c(OCC)c2)C(=O)N1CC,-5,-1,/,0.7,?,/,-1.9,1.4
CC(C)c1ccc(N(CC(=O)N2CCN(Cc3ccccc3)CC2)S(C)(=O)=O)cc1,-3,6,-13%,1.2,-8,3.2,2.3,-7.1
O=[N+]([O-])c1cccc(/C=N\N2CCN(c3ccc(Cl)cc3)CC2)c1,4,/,-3%,-1.3,1,/,/,4.6
CNC(=O)CC1C(=O)N(c2ccc(Cl)cc2)C(=S)N1NC(=O)c1cccc(F)c1 (stereo not given),-6,5,-6%,0.5,2,-2.9,-4.9,-3.3
CN(CCO)c1ccc(/C=N/Nc2nncc3ccccc23)cc1,5,9,/,-8.6,3,2.6,-1.5,-3.9
Cc1ccc(CNC(=O)c2cc(=O)c3ccccc3o2)cc1,-2,1,-11%,-0.8,-5,-7.1,5.4,-1.0
CC1(C)CC2CC(C)(CN2CC(O)c2ccccc2)C1 (stereo not given),-5,-5,2%,0.5,-5,-3.3,2.4,-0.1
CC(C)(C)CC(=O)N1CCN(Cc2ccc3c(c2)OCO3)CC1,9,-14,4%,0.4,-107,-8.9,-2.3,-0.3
CCOc1ccccc1C(=O)N(Cc1ccco1)C1CCS(=O)(=O)C1 (stereo not given),1,/,0%,0.7,/,/,/,-6.5
O=C(NCCOc1ccccc1Cl)c1ccc2c(c1)S(=O)(=O)c1cc(Cl)ccc1C2=O,-3,/,/,0.5,/,-34,/,0.4
O=C1[C@@H]2Cc3c([nH]c4ccccc34)C(c3ccc([N+](=O)[O-])cc3)N2C(=O)CN1C1CC1 (stereo not given in full),6,-5,8%,-0.2,-2,6.9,7.9,-1.0
Cc1cccc(N2CC(C(=O)Nc3ccc(S(=O)(=O)NCC4CCCO4)cc3)CC2=O)c1C (stereo not given),-2,0,/,0.3,1,-0.6,3.6,-3.8
Fc1ccc(Sc2cc(Cl)c(-c3ccccc3)nn2)cc1,0,21,4%,-0.1,-2,/,-3.9,1.9
CCOc1ccc(Nc2nc(N)nc(CSC(=S)N3CCN(c4ccccc4)CC3)n2)cc1,1,6,1%,1.2,2,35*,-1.2,-3.0
Cc1nc(SC2CC(=O)N(c3ccccc3)C2=O)nc2c1CCCC2 (stereo not given),-4,5,-4%,0.8,19,/,1.9,-1.9
Cc1nn(CCCC(=O)N2CCc3ccccc3C2)c(=O)c2cc3sccc3n12,-9,-5,10%,-0.4,-1,-1.0,-1.8,-2.8
S=C(NCc1ccncc1)Nc1cc(Cl)cc(Cl)c1,2,1,/,-0.1,-2,-0.3,3.9,-3.3
Cc1ccc(C(=O)COC(=O)CN2C(=O)C3C4CCC(C4)C3C2=O)cc1[N+](=O)[O-] (stereo not given),-2,-15,5%,0.0,6,-9.0,1.3,4.6
O=C(O)CC/C(=N\NC(=O)CNC(=O)c1ccc(F)cc1)c1ccccc1,-8,-5,1%,-0.2,3,-2.9,-0.7,1.3
COc1ccc(Cl)cc1Nc1cc(C)nc2ccccc12,10,43,/,1.0,-10,2.3,0.0,-2.5
O=C(Cc1ccccc1)Nc1nc(-c2cccc([N+](=O)[O-])c2)cs1,0,2,14%,-0.7,5,0.4,0.6,0.3
CCOC(=O)CCCCC(=O)c1[nH]c(=O)[nH]c1Cn1cnc2ccccc21,-9,-22,-2%,0.0,0,?,-1.1,0.9
COc1ccc(-c2nc(CS(=O)CC(=O)NCCN3CCCCCC3)c(C)o2)cc1OC (stereo not given),-12,5,/,0.4,21,4.9,1.6,0.7
Cc1ccc(OCc2nnc(SCC(=O)c3cccc([N+](=O)[O-])c3)n2C)cc1,-3,0,?,1.2,19,/,0.0,-4.2
CCOc1ccc2oc(C(=O)Nc3ccc(N4CCOCC4)cc3)c(C)c2c1,13,21,31%,0.4,7,/,-0.8,-1.3
CNC(=O)N(O)C1N(/N=C/c2ccc(SC)cc2)C(=S)SC1(C)C (stereo not given),0,0,-6%,-0.6,-6,6.4,?,-2.4
O=C(c1cccc2ccccc12)N1CCC(N2CCN(c3ccccc3)CC2)CC1,0,-2,12%,0.1,?,/,0.9,-1.2
COc1cccc(CN(C)Cc2cc(=O)oc3c(C)c(C)ccc23)c1,0,-5,-6%,1.2,12,-2.3,2.3,0.5
CC/C(=N\NC(=O)c1nnn(-c2nonc2N)c1-c1cccc(OC)c1)c1ccc(C)cc1,13,-8,-3%,-0.3,-3,-7.1,1.4,-0.7
CCN1CCN(CCCNC(=O)C2CCCN(c3nc4c(C)cc(C)cc4s3)C2)CC1 (stereo not given),-5,12,/,0.0,?,-0.2,0.1,2.7
Cc1ccc([N+](=O)[O-])cc1NC(=O)CSc1n[nH]c(-c2cccnc2)n1,-1,-2,-9%,1.4,-8,1.3,-0.4,0.8
CCC(=O)Nc1nnc(S(=O)(=O)N(CC)c2ccc(Cl)cc2)s1,-4,-7,2%,-1.0,-13,-0.3,0.5,-1.0
COC(=O)CNC(=S)NC(=O)c1ccc(C(C)(C)C)cc1,-4,-14,-7%,-0.8,-18,2.1,-0.7,12
CN1C(=O)/C(=C/c2ccc(C(=O)NC3CCCC3)cc2)Oc2ccccc21,19,3,16%,-0.7,2,-4.4,1.0,-2.0
CN1CCN(CC(=O)Nc2ccccc2C(F)(F)F)CC1,/,9,/,1.5,-4,-4.0,-1.4,3.5
O=C(Nc1ccnn1C1CCN(CCCc2ccccc2)CC1)c1ccccc1Cl,-1,13,18%,1.1,-4,2.7,2.8,4.8
Cc1nn(CC(=O)Nc2ccc(C#N)cc2)c(C)c1[N+](=O)[O-],-2,7,20%,1.6,-2,-43,-1.3,-0.1
Cn1c(=O)[nH]c(=O)c2c1nc(NCCCO)n2CCCc1ccccc1,6,-13,5%,0.4,5,-0.3,5.8,2.2
Cc1cc(O)cc2c1C(c1ccc(F)cc1)CC1(CC(C)(C)NC(=S)N1)O2 (stereo not given),/,44,9%,-0.3,31,/,2.4,2.1
CC(C)(CO)NC(=O)CC1C(=O)NCCN1CC(c1ccccc1)c1ccccc1 (stereo not given),-2,-4,10%,0.6,-4,-0.7,-3.6,0.0
CC1(C)Cc2c(C#N)c(SCCO)nc(N3CCOCC3)c2CO1,-3,7,5%,0.6,7,-0.4,0.6,-8.2
Cc1ccc(/C=N/NC(=O)Cn2ccc(C(F)(F)F)n2)o1,-2,-12,1%,0.5,-4,2.9,-1.1,0.5
Cc1cccc(CNc2ccc(S(=O)(=O)N3CCCCC3)cc2)c1,101*,/,/,-0.2,/,-4.0,/,-2.0
O=C(COc1ccccc1)Nc1ccc(F)cc1,-4,-11,/,0.4,-2,3.1,0.9,3.5
# (list continues)
SMILES,Beta apoptosis,T cruzi inh,Vif TR-FRET,A1 inh,Calb FLC,AF4-AF9 inh,RanGTP-Impb inh,LANA-H2B inh
CC(=O)NCCOc1cccc(OCCNC(C)=O)c1,-3,-4,16%,-0.6,-2,/,1.5,1.5
O=C(CSc1ccc(Cl)cc1)NCc1ccncc1,0,-53,-6%,1.3,-10,-12,-2.4,0.9
CCCN1Cc2cccc(C(=O)NCc3ccc(C)cc3)c2C1=O,1,34,/,-0.1,4,-5.5,-0.8,-3.1
CC(C)(C)c1cc(=O)n2c(nc3ccccc32)[nH]1,13,-4,2%,-2.4,-1,/,7.0,2.7
CCCS(=O)(=O)N1CCC(CCOc2ccccc2)(C(=O)OCC)CC1,-7,-7,6%,-0.3,15,-2.9,3.1,-3.2
Cc1ccc(S(=O)(=O)c2ccccc2)cc1S(=O)(=O)N1CCOCC1,0,5,/,1.3,-15,/,-2.1,2.3
COc1ccc(CCc2nnc(CCC(=O)NCCc3ncccc3C)o2)cc1,9,-2,-3%,-0.4,14,-0.5,-2.8,-0.2
O=C(Oc1cccccc1=O)c1ccccc1,-1,-8,-14%,-0.6,11,0.5,63*,1.9
CCN(c1ccccc1)S(=O)(=O)c1ccc(OC)c(NC(=O)c2cc(F)c(F)c(F)c2F)c1,2,/,-12%,0.2,/,-0.4,/,-0.1
CN(Cc1cccc(F)c1)C(=O)c1ccc(S(=O)(=O)N2CCCCCC2)cc1,-2,/,15%,1.3,/,-4.3,/,0.6
O=C(CNC(=S)N(Cc1ccccc1)Cc1cccnc1)NCc1ccccc1,2,54,-4%,-0.7,6,1.9,-0.4,-0.8
COc1cccc(C(=O)COC(=O)c2ccc(NC(C)=O)cc2)c1,-10,-2,-4%,-3.8,-28,/,1.3,0.0
O=C(NNC(=O)C1[C@H]2CCCC[C@@H]12)NC1CCCCC1 (stereo not given in full),-4,-26,4%,-0.1,5,-0.5,2.1,1.2
O=S(=O)(c1ccc2c(c1)CCCN2)N1CCCCC1,-4,/,8%,1.2,/,1.6,/,0.5
Brc1ccc2nc(-c3c[nH]c4ccccc34)cn2c1,-2,-4,-23%,-0.2,19,20,3.8,-3.5
O=C(Nc1ccc2c(c1)OCCO2)C1c2ccccc2C(=O)N2CCc3ccccc3C12 (stereo not given),3,8,-4%,0.6,-2,4.1,0.6,-0.3
Nc1ccc2nc3c(=O)n(C4CCCCC4)c(=O)[nH]c3nc2c1,-3,8,24%,-0.1,-11,-8.6,i,72*
Clc1cccc(CN2CCSCC2)c1,-7,-16,/,0.8,12,-2.0,1.6,1.5
COCCn1c(SCC(=O)N2CCC(C)CC2)nc2c([nH]c3ccccc32)c1=O,11,14,41%,-0.4,-9,1.4,0.8,-4.1
O=C1Cc2cc(S(=O)(=O)Nc3cccc(F)c3)ccc2N1,2,/,8%,-0.1,/,0.1,/,-1.5
COc1cccc2sc(N3CCN(C(=O)C4COc5ccccc5O4)CC3)nc12 (stereo not given),-3,5,1%,-0.5,5,5.6,1.0,-1.8
Nc1cc(C(=O)OCC(=O)Nc2ccc(N3CCOCC3)cc2)ccc1Cl,-1,/,2%,-0.8,/,-3.3,/,0.6
Cc1ccc(S(=O)(=O)N2CCN(C(=O)N3CCOCC3)C2C(C)C)cc1 (stereo not given),/,-8,-2%,1.0,-11,/,-1.2,3.6
O=C(O)C1=C[C@@H](c2ccc3c(c2)OCO3)C[C@@H](OCc2ccc(CO)cc2)O1,-6,-15,21%,-0.2,-1,-3.6&-5.0&-2.4,4.0,2.9
COc1cc(NC(=O)C2CCN(S(=O)(=O)c3cnc[nH]3)CC2)cc(OC)c1OC,/,-12,3%,-0.2,-16,/,2.0,-4.3
